CtBP-E1A inh: blocks the CtBP interaction with E1A | AID 651724 | 340,000 compounds, 0.49% hits | activity change, % (no concentration beside the values) | AlphaScreen GST-E1A/His-CtBP binding, 1536-well; stronger effect = lower value; control for the full effect not named in the record; in the data active means activity change below about -65%; inconclusive means about -30% to -65%; inactive means above about -30%; further: on the % scale 0 is the no-effect control and ±100 the full control effect
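In 5 uL wells, 23 nL compound meets equimolar GST-E1A and His-CtBP (5X stock 125 nM each) for 2 h, 37 °C. Beads (5X, 50 ug/mL) then 1 h, 37 °C, dark.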
Six1-Eya2 inh: blocks human Six1 binding to Eya2; activity change, % (concentration not given with the values); 360,000 compounds, 0.56% hits; AlphaScreen GST-Six1/His-Eya2 binding, biochemical; stronger effect = lower value; control for the full effect not named in the record; Q15475+O00167; AID 651725; in the data active = activity change below about -65%; inconclusive = about -30% to -65%; inactive = above about -30%; further: on the % scale 0 is the no-effect control and ±100 the full control effect
Target sequence (O00167 whole entry, looked up): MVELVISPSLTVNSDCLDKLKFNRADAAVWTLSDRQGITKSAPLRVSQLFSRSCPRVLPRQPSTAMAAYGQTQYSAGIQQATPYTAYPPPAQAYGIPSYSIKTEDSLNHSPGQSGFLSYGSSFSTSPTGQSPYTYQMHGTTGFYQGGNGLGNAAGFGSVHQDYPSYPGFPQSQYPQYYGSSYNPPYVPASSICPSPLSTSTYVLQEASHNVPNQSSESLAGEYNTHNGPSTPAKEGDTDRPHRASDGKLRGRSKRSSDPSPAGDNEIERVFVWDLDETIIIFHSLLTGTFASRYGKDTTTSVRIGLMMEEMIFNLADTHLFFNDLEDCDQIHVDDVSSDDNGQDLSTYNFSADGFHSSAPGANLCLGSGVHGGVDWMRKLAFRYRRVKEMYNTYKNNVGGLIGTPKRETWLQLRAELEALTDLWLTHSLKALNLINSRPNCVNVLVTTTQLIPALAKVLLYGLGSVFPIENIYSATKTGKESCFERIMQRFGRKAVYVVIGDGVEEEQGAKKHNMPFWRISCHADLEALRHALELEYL
Target sequence (Q15475 whole entry, looked up): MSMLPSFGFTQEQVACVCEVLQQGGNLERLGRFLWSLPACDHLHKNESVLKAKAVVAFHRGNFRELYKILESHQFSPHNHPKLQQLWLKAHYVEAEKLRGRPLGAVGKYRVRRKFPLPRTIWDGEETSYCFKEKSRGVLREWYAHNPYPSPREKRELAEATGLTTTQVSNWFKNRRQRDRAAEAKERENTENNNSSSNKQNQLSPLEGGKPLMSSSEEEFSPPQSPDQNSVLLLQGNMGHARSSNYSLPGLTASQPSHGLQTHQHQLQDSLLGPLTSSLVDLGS
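AlphaScreen luminescence read after one hour at 37 °C in darkness. Pin-transferred compounds met GST-Six1 and His-Eya2 protein (5X stock 250 nM/500 nM) plus glutathione donor and Ni-chelate acceptor beads (5X, 50 ug/mL).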
TRPML1 inh: human mucolipin-1 channel inhibition | AID 624415 | activity change, negative = inhibition, % (test concentration not listed) | Q9GZU1 | TRPML1-inducible cells, Ca2+ dye fluorescence, FDSS; stronger effect = lower value; inhibition of EC80 agonist-evoked calcium signal | 390,000 compounds, 0.02% hits; in the data active means activity change below about -50%; inconclusive means about -30% to -50%; inactive means above about -30%;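 further: stimulus is agonist 54-4 at its EC80 concentration; on the % scale 0 is the no-effect control and ±100 the full control effect; compound concentration not given in the record; the text of the record puts the active cut at -80%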
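TRPML1-DL cells, Tet-induced overnight (~16 h, 37 °C) at 1,500 cells/well, were loaded with Ca8 no-wash dye plus quencher for 45-90 min at room temperature. Compounds were pinned during FDSS kinetic reading; agonist 54-4 at EC80 (4 uM final) then added.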
TRPV1 PAM: enhances activation of the human vanilloid receptor TRPV1; potentiation, % at 8.33 µM; TRPV1-expressing cells, Fluo-8 calcium influx, capsaicin EC20 potentiation; host cell line not named in the record; control for the full effect not named in the record; 320,000 compounds, 0.02% hits; Q8NER1; active means potentiation above 80%; inconclusive means 30% to 80%; inactive means below 30%; further: 0% is about no effect
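Fluo-8 calcium influx in TRPV1-expressing cells, kinetic read (ex 480/em 520 nm). Compound added and read 3 min for agonist activity, followed by capsaicin at EC20 final and 2 min further read for enhancement.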
D2 PAM: human D2 receptor positive allosteric modulation. 360,000 compounds, 0.23% hits. AID 624464. P14416. potentiation, % (no concentration beside the values). DiscoveRx D2 beta-arrestin cells, luminescence, 90 min; 100% = 57 uM dopamine signal; active = potentiation of 50% or more; inconclusive = 30% to 50%; inactive = 30% or less;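 further: compound concentration not given in the record; tested on top of an EC20 dose of dopamine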
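PathHunter D2 cells, attached overnight at 37 deg C, received compound in DMSO plus dopamine at EC20 (50 nM final) for 90 min at 37 deg C. Beta-arrestin recruitment was read as luminescence after 1 h with detection reagent at ambient temperature.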
TRPML1 ag: human mucolipin-1 channel agonism. 410,000 compounds, 0.12% hits. activation, % (no concentration beside the values). TRPML1-expressing cells, Ca2+ dye fluorescence, FDSS; host cell line not named in the record; reference of the full effect not given here; in the data active = activation above about 50%; inconclusive = about 30% to 50%; inactive = below about 30%; further: 0% is about no effect; the text of the record puts the active cut at 80%
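Tet-induced TRPML1-DL cells, 1,500 per well, cultured overnight, were loaded with a no-wash Ca2+ dye for 45–90 min. Calcium fluorescence was recorded on the FDSS for 110 s after compound addition, before the EC80 agonist (4 uM 54-4) was added.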
* = called active by the depositor; ? = inconclusive; . = not tested or not shown; & = joins results of further samples. This is a random part of the collection; overall some 0.95% were active at least once.

compound,CtBP-E1A inh,Six1-Eya2 inh,TRPML1 inh,TRPV1 PAM,D2 PAM,TRPML1 ag
O=C(Nc1ccc(Br)cc1)c1ccc(F)c(S(=O)(=O)N2CCN(c3ccccn3)CC2)c1,-5,-11,5,-8,-4,0.0
O=C(O)c1ccc(/C=N/Nc2nnnn2-c2ccccc2)cc1,1,-26,0,7,-4,0.2
O=C(Nc1ccc2c(c1)OCO2)C1CCCN(S(=O)(=O)c2cccs2)C1 (stereo not given),-14,-14,8,-5,-12,0.1
Nc1nnc(SCC(=O)OCc2ccc(F)cc2)s1,-12,-2,9,-5,-10,-0.4
O=C(Cn1c2c(c(-c3ccccc3)cc1=O)CCCC2)N1CCCCCC1,-7,-2,-3,-14,-6,-0.5
COc1cc(C(=O)NCC2CCCCC2)ccc1OCc1c(C)noc1C,9,-1,15,-21,-1,0.0
O=C(CSc1ccc([N+](=O)[O-])cn1)Nc1cc(C(F)(F)F)ccc1N1CCOCC1,-3,17,0,-5,12,1.0
Cc1ccc(S(=O)(=O)NC2CCCC(C(=O)O)C2)cc1 (stereo not given),-1,3,6,5,-11,-0.2
O=C(CCC(=O)Nc1nnc(C2CCCCC2)s1)NCC1CCCO1 (stereo not given),-2,5,-2,7,1,0.6
O=C(Cc1ccc([N+](=O)[O-])cc1)N1CCc2ccccc2C1,2,-7,14,27,-1,0.1
Cc1cc(C(=O)O)n(C(C)(C)C)n1,-21,-5,19,14,0,-0.7
N#CCOc1coc(CN2CCN(c3ccccc3)CC2)cc1=O,.,20,3,-9,1,-0.6

The final 3 records of the part before are carried over, then new ones follow:
compound,CtBP-E1A inh,Six1-Eya2 inh,TRPML1 inh,TRPV1 PAM,D2 PAM,TRPML1 ag
O=C(Cc1ccc([N+](=O)[O-])cc1)N1CCc2ccccc2C1,2,-7,14,27,-1,0.1
Cc1cc(C(=O)O)n(C(C)(C)C)n1,-21,-5,19,14,0,-0.7
N#CCOc1coc(CN2CCN(c3ccccc3)CC2)cc1=O,.,20,3,-9,1,-0.6
C[C@H]1COc2cc(N3CC[C@H](O)C3)ccc2S(=O)(=O)N1,-4,10,.,.,.,-0.2
O=C(Cn1cccc1C(=O)c1ccccc1)NCCc1ccccc1,-19,-3,0,27,-7,-1.1
CCCS(=O)(=O)NC(=O)C1(C)CCN(C(=O)c2ccc(OC)cc2)C1 (stereo not given),7,4,.,.,-1,0.2
O=C(O)c1cccc(Oc2ccc([N+](=O)[O-])cc2)c1,-1,6,-10,3,-6,0.6
CC1CCC(NC(=O)c2cc(S(=O)(=O)N3CCCCC3)ccc2N2CCOCC2)CC1 (stereo not given),-3,-3,4,-5,-11,0.4
Cc1cc(NS(=O)(=O)c2ccc(NC(=O)c3cnc(Cl)c(Cl)c3)cc2)nc(C)n1,.,-91*,9,2,-6,-0.5
COc1ccc(NC(=O)CN(C)S(=O)(=O)c2ccc3[nH]c(=O)oc3c2)cc1,.,-8,62,17,-8,-0.5
Cc1ccc(Cn2nnnc2CN2CCC(O)(c3cccnc3)CC2)cc1,-2,10,12,7,-2,-0.3
COc1ccccc1N(CC(=O)NC1CC2CCC1C2)S(=O)(=O)c1ccc(C)cc1 (stereo not given),-6,-1,8,-25,-6,0.7
Cc1ccc(SCCNC(=S)Nc2cc(C)ccc2C)cc1,0,-23,-3,-10,-10,1.6
COC(=O)CCC(=O)N(C)CC1CCCN(CCc2cccc(C(F)(F)F)c2)C1 (stereo not given),1,-3,10,9,-6,0.8
Cn1cnc2c1c(=O)n(Cc1c(Cl)cccc1Cl)c(=O)n2C,-2,5,10,2,-10,0.0
CCn1ccc(=N)cc1,7,5,1,-2,18,0.7
CCOCCCNC(=O)C(NC(=O)c1ccc(NC(C)=O)cc1)c1ccc(OC)cc1 (stereo not given),-5,11,9,20,-27,0.2
O=C(O)CSCC(=O)Nc1ccc(-c2nc3ccccc3s2)cc1,?,-27,-2,1,2,0.1
N#Cc1c(-c2ccccc2)c(C#N)c2nc3ccccc3n2c1N,-5,-10,12,0,5,-0.5
CC(C)(C)c1ccc(OCCC(=O)NC2=NCCS2)cc1,-1,3,5,-16,-2,-0.8
CN(C)S(=O)(=O)c1cccc(C(=O)NCC(C)(C)CNC(=O)c2cccc(S(=O)(=O)N(C)C)c2)c1,3,1,20,2,-5,-0.7
CCCNC(=O)Nc1nccs1,5,0,-8,17,-10,-0.8
CCCCn1c(SCC(=O)OCC)nnc1-c1ccoc1C,13,11,-7,3,1,-0.3
CCn1c(SCC(=O)Nc2ccc(NC(=O)c3ccco3)c(OC)c2)nc2ccccc2c1=O,-18,-2,-12,4,-4,-0.2
CC(C)COc1ccc(CSCCNC(=S)Nc2ccccc2)cc1,5,-21,-21,0,0,0.9
O=C(C1=C[C@H](c2ccc(C(F)(F)F)cc2)C[C@H](OCc2ccc(CO)cc2)O1)N1CCN(Cc2ccc3c(c2)OCO3)CC1,-19,-20,17,-6,-10,0.7
NS(=O)(=O)c1cc(C(=O)NC2CCSc3ccccc32)ccc1Cl (stereo not given),0,?,-10,-1,-5,-0.4
Cc1cc(C(=O)O[C@H]2[C@H](Cc3ccccc3)NS(=O)(=O)[C@H]3C[C@@H]4C=C[C@]23O4)ccc1[N+](=O)[O-],-5,-25,-11,3,-8,-0.3
CCC(=O)C1CCCN(C(=O)CCc2nnc(C3(c4ccc(Cl)cc4)CCC3)o2)C1 (stereo not given),0,24,-11,-5,-27,0.3
O=Cc1ccccc1OS(=O)(=O)c1ccccc1,6,12,-16,-17,13,-0.7
CC(C)[C@@H]1COC(c2cccc(C3=N[C@H](C(C)C)CO3)c2)=N1,-12,15,19,-9,-11,1.3
CCCCCC(=O)N1CCN(CCN=CC2=C(O)CC(c3ccc(OC)c(OC)c3)CC2=O)CC1 (stereo not given),14&-7,25&10,1&1,4,-9&-9,1.5&-1.0
CCn1c(SCC(=O)NC(C)(C)C)nc(O)cc1=O,6,5,13,9,4,-0.1
O=Cc1ccc(OCCOc2ccc([N+](=O)[O-])cc2)cc1,-18,-10,22,6,-11,5.0
CCC(=O)N1CCN(c2ccc(NC(=O)c3ccc4ccccc4c3)cc2)CC1,7,4,10,13,-1,-0.1
O=C(N/C(=C/c1ccc(Br)cc1)C(=O)N1CCOCC1)c1cccs1,-5,-5,17,-10,-5,2.4
COCCCNC(=O)c1cccc(C(=O)NCCCOC)c1,-19,-1,-10,-5,-1,-0.6
O=C(CN1C(=O)NC(Cc2ccccc2)C1=O)Nc1ccc(F)c(Cl)c1 (stereo not given),-4,6,-1,-10,-2,0.8
O=C(O)CC1COc2ccccc2N1C(=O)c1ccccc1Cl (stereo not given),0,6,-9,4,-9,0.5

Ordered by value in D2 PAM (highest first): some entries from above
Structure	CtBP-E1A inh	Six1-Eya2 inh	TRPML1 inh	D2 PAM
CCn1c(SCC(=O)NC(C)(C)C)nc(O)cc1=O	6	5	13	4
O=C(CN1C(=O)NC(Cc2ccccc2)C1=O)Nc1ccc(F)c(Cl)c1 (stereo not given)	-4	6	-1	-2
O=C(N/C(=C/c1ccc(Br)cc1)C(=O)N1CCOCC1)c1cccs1	-5	-5	17	-5
Cc1cc(C(=O)O[C@H]2[C@H](Cc3ccccc3)NS(=O)(=O)[C@H]3C[C@@H]4C=C[C@]23O4)ccc1[N+](=O)[O-]	-5	-25	-11	-8
O=C(O)CC1COc2ccccc2N1C(=O)c1ccccc1Cl (stereo not given)	0	6	-9	-9
O=Cc1ccc(OCCOc2ccc([N+](=O)[O-])cc2)cc1	-18	-10	22	-11
CCC(=O)C1CCCN(C(=O)CCc2nnc(C3(c4ccc(Cl)cc4)CCC3)o2)C1 (stereo not given)	0	24	-11	-27

Following part.
compound,CtBP-E1A inh,Six1-Eya2 inh,TRPML1 inh,TRPV1 PAM,D2 PAM,TRPML1 ag
COc1ccc(N(C(=O)c2cccc([N+](=O)[O-])c2)S(=O)(=O)c2ccc3c(c2)n(C)c(=O)n3C)cc1,8,0,-1,8,-3,0.4
Cc1cc(C)c(OCCCCCn2ccnc2)c(C)c1,.,3,0,11,-2,-1.5
Cc1cc(C)n2nc(C(=O)N3CCCC(N4CCN(c5ccccc5C)CC4)C3)cc2n1 (stereo not given),1,-7,-4,2,-29,1.2
CCOC(=O)CSc1nnc2c(n1)C1(C)CCC2C1(C)C (stereo not given),10,5,11,-5,-18,0.2
CC(=O)c1cccc(NC(=O)C2CCCC2)c1,7,3,4,-7,-8,-0.4
COc1ccc(CCNC(=O)CCCn2c(=S)[nH]c3ccsc3c2=O)cc1OC,-25,2,-4,.,-7,-0.1
COc1cccc(CN2CCN(Cc3cccc(Br)c3)CC2)c1OC,-8,-4,-8,4,-16,-0.7
CC(CC(=O)Nc1ccc(Br)cc1F)S(=O)(=O)c1ccc2c(c1)NC(=O)CO2 (stereo not given),-4,0,-2&30,-4,4,-1.3&4.2
COc1cccc(/C=N/NC(=O)CNC(=O)c2ccncc2)c1O,.,5,-5,-3,-1,-0.2
COCc1cc(C)nc(N2CCNCC2)c1C#N,3,3,8,-8,-16,-0.8
COc1cc(NC(=O)CSc2ncnc3sc4c(c23)CCC(C)C4)c(C(=O)O)cc1OC (stereo not given),-3,3,-13,18,-14,0.3
CCc1nnc(NC(=O)CSc2nnc(CNC(=O)c3cc(OC)c(OC)c(OC)c3)o2)s1,?,-23,-8,?,-3,0.5
CC(C)(C)c1csc(NC(=O)CCS(=O)(=O)c2ccc(F)cc2)n1,-8,14,-24,.,-8,-0.2
CCC1(C)Cc2nc3[nH]c(=S)n(-c4ccccc4C)c(=O)c3cc2CO1 (stereo not given),-2,2,5,-6,-3,0.7
COc1ccc(CCNCc2cc(C)n(-c3ccc(OC)cc3)c2C)cc1,.,-21,13,-3,-20,3.9
Cc1cc(OC(=O)c2ccco2)c2c(C)cc(=O)oc2c1,-3,-1,21,-7,-4,-0.5
CCN(CC)c1ccc(NC(=O)c2ccc(Br)o2)cc1,-22,?,15,-13,2,-0.5
Cc1ccccc1CN1CCN(C(=O)c2cc(-c3ccncc3)nc3ccccc23)CC1,-10,-12,16,-11,2,1.5
CC1CCCC(O)(C(C(=O)O)c2ccccc2)C1 (stereo not given),4,5,-2,.,1,-0.3

One compound at a time, as listed above:
`COc1ccc(CCNCc2cc(C)n(-c3ccc(OC)cc3)c2C)cc1` as listed: CtBP-E1A inh: .; Six1-Eya2 inh: -21; TRPML1 inh: 13; TRPV1 PAM: -3; D2 PAM: -20; TRPML1 ag: 3.9
`Cc1cc(C)n2nc(C(=O)N3CCCC(N4CCN(c5ccccc5C)CC4)C3)cc2n1` (stereo not given) as listed: CtBP-E1A inh: 1; Six1-Eya2 inh: -7; TRPML1 inh: -4; TRPV1 PAM: 2; D2 PAM: -29; TRPML1 ag: 1.2
`CCC(=O)C1CCCN(C(=O)CCc2nnc(C3(c4ccc(Cl)cc4)CCC3)o2)C1` (stereo not given) as listed: CtBP-E1A inh: 0; Six1-Eya2 inh: 24; TRPML1 inh: -11; TRPV1 PAM: -5; D2 PAM: -27; TRPML1 ag: 0.3
